SARS PLP yeast: qHTS of Yeast-based Assay for SARS-CoV PLP; AID 485353, 2010; Potency, µM (highest dose often 32.9 µM), without a hit: top-dose activity, positive = growth rescue; S. cerevisiae expressing SARS-CoV PLpro, growth rescue; control for the full effect not named in the record; 330,000 tested, 0.19% active; active means well fitted rising curve with a large enough effect; inconclusive means small, poorly fitted or top-dose-only effect; inactive means no such curve, though single readings can be large or run the other way; also: 0% is about no effect; nearly all actives have a fitted effect of over 55% in size; growth read by luminescence after 48 h
LASV entry inh: qHTS for Inhibitors of binding or entry into cells for Lassa Virus. Lassa virus pseudotype entry inhibition, cell reporter; control for the full effect not named in the record. Potency, µM (highest dose often 37.9 µM), without a hit: top-dose activity change, negative = inhibition, hits mostly inhibitors. 300,000 tested, 1.2% active; active means well fitted inhibition curve with a large enough effect; inconclusive means small, poorly fitted or top-dose-only effect, or effect the other way; inactive means flat fitted curve, though single readings scatter; tested in HEK293 cells; also: % is scaled to controls: 0 for no effect and ±100 for the full control effect; nearly all actives have a fitted effect of over 50% in size; luciferase read-out
RE007 growth inh: qHTS Assay for Inhibitors of the HIV-1 protein Vpr; Potency, µM (doses to about 92.2 µM), for inactives: top-dose activity change, negative = less growth; AID 651644, 2012; S. pombe RE007 Vpr strain, BacTiter-Glo ATP luminescence, 24 h; control for the full effect not named in the record; 360,000 tested, 0.21% active; active = well fitted falling curve with a large enough effect; inconclusive = small, poorly fitted or top-dose-only effect; inactive = no such curve, though single readings can be large or run the other way;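 also: % is scaled to controls: 0 for no effect and ±100 for the full control effect; nearly all actives have a fitted effect of over 50% in size; the assay follows cell death caused by Vpr and the record does not say whether a fall means rescue or toxicity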
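Fission yeast strain RE007, carrying one chromosomally integrated HIV-1 vpr copy, was seeded at OD 0.01 in PMG+AL medium with 23 nL pinned compound. After 24 h at 30 °C and 99% humidity, viability was read by BacTiter-Glo luminescence.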
StopGo reporter: High Throughput Screening for Foot and Mouth Disease Virus Antivirals; human cells with a luciferase reporter of 2A StopGo recoding; control for the full effect not named in the record; Potency, µM (series often up to 57.9 µM), inactives show at the highest dose signal change, negative = less light; 410,000 tested, 1.2% active; AID 1159524, 2015; active = well fitted falling curve with a large enough effect; inconclusive = small, poorly fitted or top-dose-only effect; inactive = no such curve, though single readings can be large or run the other way; tested in HEK293T cells; also: % is scaled to controls: 0 for no effect and ±100 for the full control effect; nearly all actives have a fitted effect of over 45% in size; luciferase light after 4 h
NS1 function inh: qHTS Assay for Inhibitors of Influenza NS1 Protein Function. S. cerevisiae slowed by influenza A NS1, growth recovery by OD600. Potency, µM (series often up to 46.1 µM), for the others: top-dose activity, positive = more growth. 270,000 tested, 0.4% active. AID 2326, 2010; active means well fitted rising curve with a large enough effect; inconclusive means small, poorly fitted or top-dose-only effect; inactive means no such curve, though single readings can be large or run the other way; also: nearly all actives have a fitted effect of over 50% in size
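Read-out: OD600 growth recovery of NS1-expressing budding yeast. Cells grown overnight at 30C in -URA glucose medium, washed, resuspended and diluted 1:100 in 2% galactose assay medium, pH 6.0. Same strain lacking NS1 served as positive control.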
Cruzain inh noDet: qHTS Assay for Promiscuous and Specific Inhibitors of Cruzain (without detergent) | purified cruzain, Z-FR-AMC fluorescence, no detergent | 200,000 tested, 2.3% active | Potency, µM, without a hit: max response, negative = inhibition, usual class: inhibitors | Cruzipain (Trypanosoma cruzi), P25779;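 also: plate controls were enzyme without inhibitor for no effect and buffer without enzyme for full effect; nearly all actives have a fitted effect of over 40% in size; top concentration of the series not given in the record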
Target sequence (P25779 123-467 limits assumed): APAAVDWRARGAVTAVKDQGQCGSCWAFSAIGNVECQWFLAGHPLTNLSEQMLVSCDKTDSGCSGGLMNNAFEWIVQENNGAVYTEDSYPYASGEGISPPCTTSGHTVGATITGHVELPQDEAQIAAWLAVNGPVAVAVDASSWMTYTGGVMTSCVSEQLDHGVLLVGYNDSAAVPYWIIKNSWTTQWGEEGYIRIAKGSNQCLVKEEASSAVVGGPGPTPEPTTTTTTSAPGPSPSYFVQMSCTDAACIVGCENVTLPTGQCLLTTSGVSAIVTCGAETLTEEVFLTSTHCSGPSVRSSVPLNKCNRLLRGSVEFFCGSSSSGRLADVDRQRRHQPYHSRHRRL
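Purified cruzain at 1.5 nM, pre-incubated 15 min with compound at room temperature in 100 mM sodium acetate pH 5.5, 5 mM DTT, 0.00005% Triton X-100. Reaction started with 2 uM Z-FR-AMC; AMC fluorescence increase over 60 s gives rate.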
Cruzain Triton: qHTS Assay for Promiscuous and Specific Inhibitors of Cruzain (with detergent); Cruzipain (Trypanosoma cruzi), P25779; 200,000 tested, 0.43% active; AID 1478, 2009; Potency, µM, for inactives: max response, negative = inhibition, most hits filed as inhibitors; purified cruzain, Z-FR-AMC fluorescence, 0.01% Triton;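 also: plate controls were neutral wells for no effect and buffer without enzyme for full effect; nearly all actives have a fitted effect of over 40% in size; top concentration of the series not given in the record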
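Compounds were screened in titration against cruzain (1.5 nM) with 0.01% Triton X-100 to counter colloidal aggregation. Activity was the AMC fluorescence increase over 60 s after adding 2 uM Z-FR-AMC at pH 5.5.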
MARV entry inh: qHTS for inhibitors of binding or entry into cells for Marburg Virus. Marburg virus pseudotyped entry inhibition, cell reporter; control for the full effect not named in the record; about a third of the inactives were read at about 46 µM. Potency, µM (series often up to 37.8 µM), for the others: at the highest dose activity change, negative = inhibition, actives largely listed as inhibitors. 300,000 tested, 1.8% active. AID 540276, 2011; active = well fitted inhibition curve with a large enough effect; inconclusive = small, poorly fitted or top-dose-only effect, or effect the other way; inactive = flat fitted curve, though single readings scatter; tested in HEK293 cells; about a fifth of its hits are not listed in these tables; also: % is scaled to controls: 0 for no effect and ±100 for the full control effect; luciferase read-out
* = called active by the depositor; ? = inconclusive; . = not tested or not shown; [ ] = another dose, or the depositor's remark. Unless noted, calls follow the shape of the dose curve; as a rule, active = well fitted curve in the direction sought with a large enough effect; inconclusive = small, poorly fitted or top-dose-only effect, or another doubt; inactive = no such curve, though single readings can be large; an effect the other way counts as inactive or inconclusive. Potency is read from the fitted curve at half-maximal effect.

SMILES | SARS PLP yeast | LASV entry inh | RE007 growth inh | StopGo reporter | NS1 function inh | Cruzain inh noDet | Cruzain Triton | MARV entry inh
COc1ccc(CCN=C(N)NS(=O)(=O)c2ccccc2)cc1OC | -2% | 0% | -6% | -18% | -4% | 13% | 3.7% | 23%
CCCc1cnc2c(c1SCC(=O)Nc1ccccc1F)c(=O)n(C)c(=O)n2C | . | -2%[46.1 µM] | . | -8% | . | 2% | -3.3% | .
CCCOc1ccc(C(=O)CCC(=O)NNC(=O)c2ccncc2)cc1 | 0% | 27% | -4% | -9% | 2% | . | . | 3%
CCc1c(C)c2c(C)nn(-c3ccccc3)c2oc1=O | -28% | 7% | -11% | 1% | -27% | -14% | -9.6% | 2%[46.1 µM]
CCCCOC(=O)C1[C@H]2C(=O)N(Cc3cccs3)C[C@]23C=C[C@H]1O3 (stereo not given in full) | 0% | -6% | 0% | -1% | 9% | 29% | -18% | 4%
O=C(c1cc(-c2ccco2)nc2ccccc12)N1CCN(c2ccc(F)cc2)CC1 | -39% | ? | -5% | 1% | -50% | -16% | -8.9% | ?
Cn1c(=O)c2c(nc(NCCCN3CCOCC3)n2Cc2cccc(Cl)c2)n(C)c1=O | 3% | 13% | -4% | -15% | -7% | 9% | -2.9% | -1%
O=C(CC(=O)N/N=C/c1ccc(C(=O)O)cc1)NCCc1ccccc1 | 1% | . | 8% | -1% | 12% | . | . | .
Cc1cc(=O)c2cc(Br)ccc2[nH]1 | -13% | 0% | 13% | -19% | -2% | 7% | -1.1% | ?
CCOC(=O)Cc1csc(NC(=O)CSc2nnc(-c3cccnc3)n2Cc2ccco2)n1 | 7% | 4% | 3% | -4% | -3% | 3% | -4.5% | 6%
CC1CCN(S(=O)(=O)c2ccc(C(=O)Nc3nnc(-c4ccco4)o3)cc2)CC1 | -3% | ? | 2% | -20% | -2% | . | . | ?
O=C(NN=Cc1ccccc1)C(Oc1ccccc1)c1ccccc1 (stereo not given) | . | ? | -2% | -29% | . | . | . | -4%
CCc1cccc(C)c1Nc1c(-c2ccc(N(C)C)cc2)nc2cnccn12 | . | ? | . | ? | . | -3% | -9.7% | ?
Cc1[nH]n(-c2c(Cl)cc(Cl)cc2Cl)c(=O)c1C=Nc1ccc(S(=O)(=O)N2CCOCC2)cc1 | -1% | -13% | 9% | -23% | 22% | 3% | 0.4% | -23%
C=CCn1c(CCc2cc(C(C)(C)C)c(O)c(C(C)(C)C)c2)n[nH]c1=S | 0% | 0% | 16% | ? | . | . | . | -27%[46.1 µM]
Cc1cc(NC(=O)c2cncc(Br)c2)n(-c2ccccn2)n1 | -4% | 5% | 21% | -28% | 1% | 28% | -1.7% | ?
Nc1nnc(N2CCc3ccccc32)s1 | -22% | ? | 0% | 18% | -24% | -18% | -4.2% | -12%
CC12COC3(C(N)=O)CC1CCC32C (stereo not given) | 4% | 0% | 6% | -28% | 3% | -10% | 1.6% | 0%
CCOC(=O)c1cc(-c2ccccc2)n(CCCC(=O)Nc2cccc(C)c2C)c1C | . | 0%[46.1 µM] | . | -10% | . | -4% | -0.5% | .
Cc1cc(NC(=O)COc2c(C)cccc2C)no1 | -3% | -23%[46.1 µM] | 1% | 3% | -8% | . | . | 0%[46.1 µM]

Reprinted from the listing, 4 compounds:
SMILES | SARS PLP yeast | LASV entry inh | RE007 growth inh | StopGo reporter | NS1 function inh | Cruzain inh noDet | Cruzain Triton | MARV entry inh
CCc1cccc(C)c1Nc1c(-c2ccc(N(C)C)cc2)nc2cnccn12 | . | ? | . | ? | . | -3% | -9.7% | ?
Cc1[nH]n(-c2c(Cl)cc(Cl)cc2Cl)c(=O)c1C=Nc1ccc(S(=O)(=O)N2CCOCC2)cc1 | -1% | -13% | 9% | -23% | 22% | 3% | 0.4% | -23%
C=CCn1c(CCc2cc(C(C)(C)C)c(O)c(C(C)(C)C)c2)n[nH]c1=S | 0% | 0% | 16% | ? | . | . | . | -27%[46.1 µM]
Cc1cc(NC(=O)c2cncc(Br)c2)n(-c2ccccn2)n1 | -4% | 5% | 21% | -28% | 1% | 28% | -1.7% | ?

Continued:
SMILES | SARS PLP yeast | LASV entry inh | RE007 growth inh | StopGo reporter | NS1 function inh | Cruzain inh noDet | Cruzain Triton | MARV entry inh
O=c1c2ccccc2ncn1-c1ccc([N+](=O)[O-])cc1[N+](=O)[O-] | -8% | 18%[46.1 µM] | ? | 0% | -35% | . | . | ?
Nc1cccnc1Oc1ccc(F)cc1 | -1% | 18%[46.1 µM] | 10% | 2% | -1% | . | . | -23%[46.1 µM]
COc1cc(/C=C2/SC(N)=NC2=O)ccc1Oc1ccc([N+](=O)[O-])cc1[N+](=O)[O-] | -14% | ? | -16% | -24% | 10% | ? | -2.7% | ?
COc1cc(NS(=O)(=O)c2ccc(NC(=O)COc3ccccc3Cl)cc2)nc(OC)n1 | 8% | -9% | -4% | 42%[activator] | 14µM* | ? | -29% | 4%
CCc1ccc(NC(=O)N2CCOc3ccc(Cl)cc32)cc1 | . | 13%[46.1 µM] | . | 18% | . | -10% | -5.7% | .
COC(=O)c1ccc(N=NNc2ccc(C(=O)OC)cc2)cc1 | ? | ? | -14% | 29% | 12% | 5% | 1.7% | ?
CNCCCOc1ccc2c(c1)CCC2 | 1% | -1%[46.1 µM] | 3% | -19% | 5% | . | . | ?
CN(C)S(=O)(=O)c1ccc(Cl)c(NC(=O)CN2CCc3ccccc3C2)c1 | 0% | ? | -5% | -9% | -7% | . | . | ?
Cc1ccc(S(=O)(=O)N2CCCC(C(=O)NCC(C)C)C2)cc1 (stereo not given) | 1% | 12%[46.1 µM] | -21% | -15% | 2% | . | . | 0%[46.1 µM]
S=c1[nH]nc(C2CCCCC2)n1/N=C/c1cccc(Cl)c1Cl | -4% | -31%[46.1 µM] | -14% | -19% | 4% | . | . | -7%[46.1 µM]
Cc1ccc(C(=O)N/C(=C\c2ccc(-c3cccc([N+](=O)[O-])c3)o2)C(=O)NCCCN(C)C)cc1 | -1% | ? | 2% | -8% | -10% | . | . | ?
Cc1cc(C(=O)OCC(=O)Nc2cc(C(F)(F)F)ccc2N2CCOCC2)c(C)o1 | 15% | -12% | 5% | ? | ? | ? | -3.3% | .
CCn1cc(C(=O)NCc2ccc(C)cc2)c(=O)c2cc(S(=O)(=O)N3CCc4ccccc4C3)ccc21 | . | ? | . | -1% | . | -8% | -1.1% | 23%[46.1 µM]
CC(=O)c1ccc(NC(=O)CSc2nnc(NC(=O)C3CC3)s2)cc1 | 2% | 11% | 4% | -3% | 11% | . | . | 7%
Cc1cc(C)c(S(=O)(=O)N(C)CC(=O)N2CCCCC2)c(C)c1 | 5% | -10% | -2% | ? | -11% | -7% | 5.6% | -10%[46.1 µM]
COc1cccc(NC(=O)C2CCCN(S(=O)(=O)c3cn(C(C)C)cn3)C2)c1 (stereo not given) | . | 5%[46.1 µM] | . | 6% | . | -8% | -1.8% | .
Cc1cccn2c(=O)c3cc(C(=O)NC4CCS(=O)(=O)C4)sc3nc12 (stereo not given) | 2% | . | 8% | -15% | -2% | 3% | -8.6% | .
CCC(=O)N1c2ccccc2CC1C(=O)NCc1cccc(C)c1 (stereo not given) | . | -18%[46.1 µM] | . | 22% | . | 3% | 1.1% | .
CCOc1ccc(-c2noc(CCCC(=O)NCC3CCCO3)n2)cc1OC (stereo not given) | -2% | 18% | 10% | -16% | 0% | . | . | -8%
COc1ccc(OC)c(Nc2nc(-c3c(C)nc4ncccn34)cs2)c1 | -3% | . | 1% | ? | -3% | . | . | .
O=c1cc(N2CCCCC2)[nH]c(=O)n1C1CCCCC1 | 1% | . | 2% | 30% | 4% | . | . | .
Cn1c(=O)[nH]c2cc(Cl)cnc21 | 6% | 12% | -1% | 0% | 1% | 15% | 7.3% | 1%[46.1 µM]
CSc1ccc(C(=O)C2CCCN(CCCn3cccn3)C2)cc1 (stereo not given) | 0% | 12% | 5% | -11% | 0% | . | . | -4%[46.1 µM]
CC1C(=O)N2CCCc3cc(S(=O)(=O)N4CCN(c5ccccc5F)CC4)cc1c32 (stereo not given) | 1% | . | 1% | -5% | 25% | . | . | .
COc1ccc2c(c1)c(C(=O)N/N=C/c1ccc(O)c(O)c1)c(C)n2C | -1% | -1% | 0% | -27% | 9% | -1% | -9.9% | -32%
Cc1ccc(Nc2c([N+](=O)[O-])ccc3c2=NC2(CCCCC2)N=3)cc1 | 0% | . | -2% | ? | 10% | -7% | 1.3% | .
Cc1ccc(C)c(N2CCN(CCCNC(=O)c3cnn(-c4ccc(F)cc4)c3C3CCN(C(=O)OC(C)(C)C)CC3)CC2)c1 | . | 7%[46.1 µM] | . | ? | . | -7% | -4.0% | .
Cc1ccccc1CCN(CC(=O)NCc1ccc(F)cc1)C(=O)c1csnn1 | -1% | ? | -16% | -23% | -1% | . | . | 1%[46.1 µM]
O=C1N=C(N2CCOCC2)S/C1=C\c1ccccc1OS(=O)(=O)c1ccccc1 | -1% | . | 17% | -1% | 3% | . | . | .
C=C(C)c1cccc(C(C)(C)NC(=O)NCc2ccc(OC)cc2)c1 | -5% | -1% | -8% | -14% | 17% | 7% | -2.1% | ?
COc1cc(/C=C(\C#N)c2nc3ccccc3s2)ccc1OCC(=O)Nc1ccccc1 | 15% | ? | 2% | 1% | 23% | 1% | -1.1% | -9%
O=C(Nc1ccc(F)cc1F)c1cc(S(=O)(=O)N2CCCCC2)c[nH]1 | . | ? | . | 4% | . | -8% | -2.9% | .
CCOc1ccccc1NC(=O)CN(c1ccc(OC)cc1)S(=O)(=O)c1c(C)[nH]c(=O)[nH]c1=O | 1% | . | 4% | -20% | 6% | . | . | .

Assay outcomes as filed in PubChem BioAssay.

Compounds as they come; 4.7% or so of the library scored in one or more.
